KCNQ2 inh – KCNQ2 potassium channel inhibitors, primary screen, cell-based, CHO-K1, FluxOR thallium flux, B-score (AID 2156) | 20 min; stronger effect = lower value; only compounds with negative scores are shown here; some inactives read as strong as hits | 310,000 compounds, 1.1% hits | B-score at 10 µM | O88943;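 active means fluorescence ratio B-score at most minus 3 library SDs, with starting brightness B-score within 2 library SDs, cut at about -5.5 in these data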
Target sequence (O88943 whole entry, looked up): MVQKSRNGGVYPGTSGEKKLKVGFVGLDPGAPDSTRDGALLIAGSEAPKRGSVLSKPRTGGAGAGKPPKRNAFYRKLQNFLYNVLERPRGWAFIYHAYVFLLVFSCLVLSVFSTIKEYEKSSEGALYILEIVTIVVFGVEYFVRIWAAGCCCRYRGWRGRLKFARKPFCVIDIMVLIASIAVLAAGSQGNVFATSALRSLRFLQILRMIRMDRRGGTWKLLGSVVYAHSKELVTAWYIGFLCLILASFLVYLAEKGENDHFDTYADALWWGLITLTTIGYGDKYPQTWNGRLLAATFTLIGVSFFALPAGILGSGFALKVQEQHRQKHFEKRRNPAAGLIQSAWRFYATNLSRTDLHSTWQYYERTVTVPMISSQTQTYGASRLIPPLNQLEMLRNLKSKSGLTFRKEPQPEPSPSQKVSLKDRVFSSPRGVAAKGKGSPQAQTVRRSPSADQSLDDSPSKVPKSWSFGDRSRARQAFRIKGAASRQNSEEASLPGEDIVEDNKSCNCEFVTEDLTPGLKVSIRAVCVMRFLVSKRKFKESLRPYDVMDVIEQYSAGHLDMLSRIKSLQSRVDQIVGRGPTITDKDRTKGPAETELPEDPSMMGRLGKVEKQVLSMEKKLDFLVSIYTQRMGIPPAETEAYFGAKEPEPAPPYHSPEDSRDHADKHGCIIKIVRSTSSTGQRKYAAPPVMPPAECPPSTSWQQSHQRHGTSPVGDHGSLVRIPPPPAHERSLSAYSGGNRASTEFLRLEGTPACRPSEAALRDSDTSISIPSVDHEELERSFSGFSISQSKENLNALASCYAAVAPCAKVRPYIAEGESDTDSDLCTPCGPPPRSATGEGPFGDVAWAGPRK
KCNQ2 inh baseline – further read-out of KCNQ2 inh, marked with its call; B-score; measured here: initial fluorescence intensity artifact check;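 brightness before thallium and not channel activity; 0 = typical well and far values either way flag optical interference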
Active calls of the source: *; i = inactive. Some of the compounds tested. The share of hits here may be higher or lower than overall.

| SMILES | KCNQ2 inh | KCNQ2 inh baseline |
| --- | --- | --- |
| O=C1CC(N2CCN(c3cccc(C(F)(F)F)c3)CC2)C(=O)N1c1ccccc1F (configuration not stated) | i | 2.43 |
| CCOC(=O)N1CCN(Cc2nc3cc(NC(=O)C(C)C)ccc3n2CC)CC1 | i | 0.6 |
| S=C(Nc1ccc2nccnc2c1)N1CCOCC1 | i | 0.03 |
| S=C1NC2(CCCCC2)Nc2ccccc21 | i | 0.08 |
| CCOC(=O)C1C(=O)C=C(/C=C/c2ccccc2)CC1c1ccc(Cl)cc1 (configuration not stated) | i | -0.8 |
| COc1cccc(-c2cc(N3C(=O)Nc4ccccc4N3O)n[nH]2)c1 | i | 3.09 |
| CC(C)c1ccc(C(C)NCCS(=O)(=O)c2ccc(Br)cc2)cc1 (configuration not stated) | i | 2.3 |
| CC(OC(=O)c1ccccc1NCCO)C(=O)NCC(=O)Nc1ccc(F)c(F)c1F (configuration not stated) | i | -1.77 |
| COc1ccc(C(N)c2nccc3cc(OC)c(OC)cc23)cc1OC (configuration not stated) | i | 1.89 |
| Cc1ccc(OCC(=O)NCc2cccs2)c([N+](=O)[O-])n1 | i | -0.74 |
| Cc1ccc(C(=O)NCC(C)(C)N2CCOCC2)s1 | i | 4.6 |
| Cc1ccc(C(=O)NCC(=O)N/N=C/c2sccc2C)cc1[N+](=O)[O-] | i | -0.93 |
| CCC(C(=O)OC)n1cnc2c(nnn2-c2ccc(OC)cc2)c1=O (configuration not stated) | i | -0.81 |
| Cc1ccc2nc(Cl)c(CNCc3ccccc3)cc2c1 | i | -1.01 |
| O=c1c2ccccc2nnn1-c1ccc(Br)cc1 | i | 1.82 |
| N#Cc1cnn(-c2nc(SCc3ccccc3)nc3sc4c(c23)CCCC4)c1N | i | 0.79 |
| CC(C)Cn1c([N+](=O)[O-])nc2c1c(=O)[nH]c(=O)n2C | i | -1.22 |
| Nc1ccc2cn[nH]c2c1 | i | 1.14 |
| COc1ccc(-c2cc(-c3ccccc3)c(C#N)c(SCC(=O)O)n2)cc1 | i | 0.64 |
| Fc1ccccc1COc1ccc(Br)cc1CNCc1cccnc1 | i | 1.35 |
| COC(=O)C1CCN(c2nc3ccccc3nc2C(C#N)C(=O)OCC(C)C)CC1 (configuration not stated) | i | -0.83 |
| CCn1c(SCC(=O)Nc2cc(OC)c(OC)c(OC)c2)nnc1-c1cccs1 | i | -2.06 |
| COc1ccc2c(Cl)c(C(=O)N/N=C3\CCCC(=O)C3)sc2c1 | i | 2.18 |
| COCCNC(=O)CN(Cc1ccc2c(c1)OCO2)C(=O)CCC(=O)Nc1nccs1 | i | 4.15 |
| Cc1sc2nc(-c3ccccc3)oc(=O)c2c1C | i | -0.02 |
| CCCCc1c(O)nc(SCC(=O)N2CCOCC2)n(-c2ccccc2OC)c1=O | i | 0.24 |
| Cc1n[nH]c(C)c1CCN(C)Cc1cn(C)nc1-c1ccccc1F | i | -0.3 |
| C=CCOc1cccc(C2/C(=C(/O)c3ccccc3)C(=O)C(=O)N2CCN2CCOCC2)c1 (configuration not stated) | i | 0.6 |
| Cc1cc(C(F)F)nn1CC(=O)NCc1ccc(Cl)cc1Cl | i | -1.28 |
| O=C(c1ccco1)N1CCN(S(=O)(=O)c2ccc(F)cc2)CC1 | i | 1.56 |
| O=C(NNC(=S)NCc1ccccc1)c1ccc2c(c1)OCO2 | i | 0.91 |
| COc1ccc2c(c1)CCC/C2=N\OC(=O)c1ccccc1F | i | -0.03 |
| Cc1sc2ncnc(N3CCC(C(=O)NNC(=O)COc4ccc(Br)cc4)CC3)c2c1C | i | 0.34 |
| CCC(NC(=O)NC1=NCCS1)(C(F)(F)F)C(F)(F)F | i | 0.66 |
| CC(C)c1ccc(C(CC(=O)O)N2Cc3ccccc3C2=O)cc1 (configuration not stated) | i | -1.46 |
| COc1ccc(Cl)cc1S(=O)(=O)Nc1ncn[nH]1 | i | 1.18 |
| Fc1ccc(-n2nnnc2-c2cnc(-c3cccs3)nc2C(F)(F)F)cc1 | i | -0.34 |
| Cc1sc2ncnc(SCc3ccco3)c2c1C | i | -1.45 |
| CC(C)C(NC(=O)C1CCCCC1)C(=O)NC1CCCC(C)C1C (configuration not stated) | i | 1.28 |
| CCCNC(=O)CN1C(=O)NC(Cc2c[nH]c3ccccc23)C1=O (configuration not stated) | i | 2.27 |
| Cc1ccc(-n2nc3c(=O)n(CCCC(=O)NCc4ccc(F)cc4)nc(C)c3c2C)cc1 | i | -0.89 |
| COc1ccc(C(=O)/C=C/Nc2cc(C)ccn2)cc1 | i | 0.03 |
| S=c1[nH]nc(COc2ccc(Cl)cc2)n1C1CCCCC1 | i | 1.01 |
| CN(C)c1ccc(/C=C(/NC(=O)c2ccccc2)C(=O)N2CCCC2)cc1 | i | 0.88 |
| COc1nc(-c2ccccc2)ccc1-c1noc(-c2ccccc2F)n1 | i | -0.26 |
| O=Cc1ccc(N2CCCC2)c(F)c1 | i | -1.3 |
| CC1CCN(Cc2ccc(-c3nnn(CC(=O)Nc4ccccc4Cl)n3)cc2)CC1 | i | 0.18 |
| NC(=S)COc1ccccc1 | i | -1.08 |
| Cc1ccc(NC(=O)C2(N3CCC3=O)CCCCC2)cc1 | i | 0.87 |
| COc1ccc(N(C)S(=O)(=O)c2cccc(C(=O)NC3CCCC(C)C3C)c2)cc1 (configuration not stated) | -7.29* | 1.65* |

Going on with the list:
| SMILES | KCNQ2 inh | KCNQ2 inh baseline |
| --- | --- | --- |
| O=C(CSc1nnc(-c2ccncc2)n1Cc1ccccc1)NC1CCCc2ccccc21 (configuration not stated) | -5.75* | 1.23* |
| CSc1ccc(CN(C)C(=O)c2cc(=O)c3ccccc3o2)cc1 | i | 0.77 |
| CCSc1nnc(-c2ccc(S(=O)(=O)N3CCOCC3)cc2)n1CC1CCCO1 (configuration not stated) | i | -0.16 |
| CCOC(=O)Cc1c(C)nc2c(-c3ccccc3)cnn2c1C | i | -1.53 |
| CC1CCN(C2=C(NS(=O)(=O)c3ccccc3)C(=O)c3ccccc3C2=O)CC1 | i | -0.34 |
| COc1ccc(OCC(O)CN2CC(C)OC(C)C2)cc1 (configuration not stated) | i | 1.36 |
| O=C(Nc1cccc(C(=O)N2CCCCCC2)c1)c1ccco1 | i | 0.13 |
| Cc1nn(Cc2ccccc2Cl)c(C)c1C(=O)N1CCN(c2ccccc2)CC1 | i | 1.06 |
| CC1(C(=O)OCC(=O)Nc2nc(-c3ccc(F)c(F)c3)cs2)CC1(Cl)Cl (configuration not stated) | i | 0.09 |
| COc1cc2ccccc2cc1C(=O)Nc1ccc(S(=O)(=O)Nc2cc(C)on2)cc1 | i | -0.78 |
| O=C(Nc1ccc(Cl)c(Cl)c1)N1N=CCC1c1ccccc1 (configuration not stated) | i | -2.15 |
| O=c1c2ccccc2nc(-c2ccco2)n1CCc1ccc(O)cc1 | i | 0.1 |
| C/C=C/c1ccc(OCCCCN(C)Cc2ccccc2)c(OC)c1 | i | -0.03 |
| Cc1ccc(N(CC(=O)Nc2ccccc2-c2ccccc2)S(=O)(=O)c2ccccc2)c(C)c1 | -7.7* | -0.12* |
| Cc1cc(C)nc(SCC(=O)NCc2ccco2)n1 | i | 2.6 |
| CCN(CC)c1ccc(C(=O)OCC(=O)Nc2ccccc2-c2ccccc2)cc1 | -6.5* | -0.89* |
| Cc1ccc2c(c1)NC(c1cccs1)C1=C(CC(C)(C)CC1=O)N2 (configuration not stated) | i | 0.1 |
| C#CCOCCOCCOCCNc1nc(N2CCN(C(=O)[C@H]([C@@H](C)CC)n3cc([C@@H](N)CC(C)C)nn3)CC2)nc(N2CCN(C(=O)[C@H](Cc3ccc(O)cc3)n3cc([C@@H](N)CC(C)C)nn3)CC2)n1 | i | 0.53 |
| O=C(CSc1nnc(Nc2ccccc2)s1)NCCN1C(=O)CSC1=O | i | 1.23 |
| CCOC(=O)C[C@H]1c2ccc(C(F)(F)F)cc2S(=O)(=O)N1C1CCCC1 | i | -0.55 |
| COc1cc(C(=O)O)cc(NC(=O)c2ccco2)c1OC | i | 0.68 |
| Cc1nnc(NC(=O)CSc2nnc(-c3ccoc3C)n2CC(C)C)s1 | i | -0.33 |
| CCn1c(=O)cc(OCC(=O)NC2CCCCC2)c2ccccc21 | i | -0.73 |
| COc1ccccc1C(NC(=O)C1CCCCC1)c1c(O)ccc2ccccc12 (configuration not stated) | i | 0.49 |
| O=C(CSc1nc2ccccc2c(=O)n1NC(=O)Cc1ccccc1)NCc1ccccc1Cl | i | 0.6 |

(cont.)
compound | KCNQ2 inh | KCNQ2 inh baseline
Cc1cc(C)cc(C(=O)NCC(=O)NCCc2c[nH]c3ccccc23)c1 | i | 0.01
CCOc1c(OC)cccc1C1CC(=O)Nc2cc(OC)c(OC)cc21 (configuration not stated) | i | -1.83
C/C(=N\NC(=O)CCn1nc(C)cc1C)C(C)(C)C | i | 0.72
N#C/C(=C\c1c[nH]c2ccccc12)C(=O)NC1CCCC1 | i | -0.75
COC(=O)C(O)(CC(=O)Nc1cc(Cl)ccc1Cl)C(F)(F)F (configuration not stated) | i | 0.34
COc1ccc(NC(=O)C(=O)NCCC2CCCCN2S(=O)(=O)c2cccs2)cc1 (configuration not stated) | i | 1.2
Cc1ccccc1NC(=O)/C(C#N)=C\c1cccnc1 | i | -1.34
CCOc1ccc(C2Nc3cccc4cccc(c34)N2)cc1OC | i | -1.06
Cc1ccc(S(=O)(=O)N(CCCN2CCCC2=O)Cc2cc3c(C)ccc(C)c3[nH]c2=O)cc1 | i | 0.1
CCOc1ccc(NC(=O)/C(C=Nc2ccccc2)=C(\C)O)cc1 | i | 2.68
CCOC(=O)c1sc(N)c(C(N)=O)c1C | i | 1.93
CC1CN(Cc2cc(=O)[nH]c(C3CC3)n2)CC(C)O1 (configuration not stated) | i | 1.64
C/C(=N/OC(=O)C1CC1c1ccccc1)c1ccccc1 (configuration not stated) | i | 1
CCOc1ccc(N2C(=O)C3C4C=CC([C@H]5CC45)[C@@H]3C2=O)cc1 (some centres not stated) | i | -0.33
COC(=O)c1ccccc1NC(=O)N1CCN(Cc2ccco2)CC1 | i | -1.44
Cc1cc(C)n(-c2ccc(C(=O)OCC(=O)Nc3ccc(Cl)c(S(=O)(=O)N(C)C)c3)cc2)n1 | i | -0.25
Oc1ccc(-c2nc3ccccn3c2NCc2ccco2)cc1 | -5.77* | -1.49*
Cc1cccc(NC(=O)CCN2CC(C)OC(C)C2)c1 (configuration not stated) | i | 2.13
CC1=[N+](C)N(c2ccccc2)C(=O)C1N=Cc1ccccc1Cl (configuration not stated) | i | 0.27
CCOC(=O)c1cccc(NC(=O)CCc2nc(-c3ccc(C)cc3)no2)c1 | i | -1.82
CC1=NN(C(N)=S)C(=O)C1N=Nc1ccccc1O (configuration not stated) | i | 0.4
Cc1nnc(SCC(=O)NC(C)(C)C)n1NCc1cccc(Br)c1 | i | 1.93
Cc1nc(-c2ccc(Cl)cc2)sc1C1(C)CC(c2ccc(C#N)cc2)=NO1 (configuration not stated) | i | 1.06
C=CCn1c(C)csc1=Nc1ccccc1C | i | 0.01
CC1CN(Cc2ccc(C#N)cc2Cl)CC(C)O1 (configuration not stated) | i | -1.65
Cc1ccc(/C=N/NC(=O)Cc2c[nH]c3ccccc23)c(C)c1 | i | -0.63
CCn1c(SC(=O)NC2CCCCC2)nnc1-c1cccs1 | i | 0.06
CC(=O)CCc1c(C)c2cc(C)ccc2[nH]c1=O | i | 0.74
CSCC(=O)N1CCC(n2nccc2NC(=O)c2ccc3c(c2)OCO3)CC1 | i | 0.68
C=CCSc1nnc2c(n1)-c1cccc3cccc-2c13 | i | -0.6
CCOC(=O)CSc1nc(-c2ccccc2)nc2ccc(F)cc12 | i | 1.28
COc1ccc(NC(=O)c2cc3c(-c4ccc(OC)c(OC)c4)nn(C)c3s2)cc1OC | i | -1.83
CCOC(=O)c1nnn(CC(=O)NC(=O)Nc2ccccc2)c1C(=O)OCC | i | -0.63
O=C(O)CCc1ccc(-c2ccc(Br)cc2)n1NC(=O)c1ccc([N+](=O)[O-])cc1 | i | 0.78
O=C(O)CCC(=O)NNC(=O)COc1cccc(Cl)c1 | i | 0.04
CC(C)(C)OC(=O)NC(Cc1ccccc1)C(=O)NC(CSC1CCCCO1)C(=O)NN (configuration not stated) | i | -0.84
Cc1cccc(C)c1NC(=O)/C(C#N)=C/c1ccsc1 | i | 2.11
Cc1ccccc1CN1CCN(C(C)C(=O)NCc2ccccc2)CC1 (configuration not stated) | i | -0.02
Cc1nc(CC(=O)N/N=C/c2ccc(OCC(=O)O)cc2)cs1 | i | 0.44
CC1C(=O)Nc2ccc(S(=O)(=O)NCc3ccc(Cl)cc3)cc2NC1=O (configuration not stated) | i | -0.42
CCC(=O)N=c1sc2cc([N+](=O)[O-])ccc2n1CCOC | i | -0.03
CCOc1ccc(CCNC(=O)c2ccc(CS(=O)Cc3cccc(Cl)c3)o2)cc1 (configuration not stated) | i | -0.12
CC1CCCN(C(=O)c2nn(C)c3c2CSc2ccccc2-3)C1 (configuration not stated) | i | 0.85

Seven successive records from above, quoted:
compound | KCNQ2 inh | KCNQ2 inh baseline
CCOC(=O)CSc1nc(-c2ccccc2)nc2ccc(F)cc12 | i | 1.28
COc1ccc(NC(=O)c2cc3c(-c4ccc(OC)c(OC)c4)nn(C)c3s2)cc1OC | i | -1.83
CCOC(=O)c1nnn(CC(=O)NC(=O)Nc2ccccc2)c1C(=O)OCC | i | -0.63
O=C(O)CCc1ccc(-c2ccc(Br)cc2)n1NC(=O)c1ccc([N+](=O)[O-])cc1 | i | 0.78
O=C(O)CCC(=O)NNC(=O)COc1cccc(Cl)c1 | i | 0.04
CC(C)(C)OC(=O)NC(Cc1ccccc1)C(=O)NC(CSC1CCCCO1)C(=O)NN (configuration not stated) | i | -0.84
Cc1cccc(C)c1NC(=O)/C(C#N)=C/c1ccsc1 | i | 2.11

Shown field by field: entries from further up
O=C(O)CCC(=O)NNC(=O)COc1cccc(Cl)c1
  KCNQ2 inh: i | KCNQ2 inh baseline: 0.04

CC(C)(C)OC(=O)NC(Cc1ccccc1)C(=O)NC(CSC1CCCCO1)C(=O)NN (configuration not stated)
  KCNQ2 inh: i | KCNQ2 inh baseline: -0.84

Cc1cccc(C)c1NC(=O)/C(C#N)=C/c1ccsc1
  KCNQ2 inh: i | KCNQ2 inh baseline: 2.11

Cc1ccccc1CN1CCN(C(C)C(=O)NCc2ccccc2)CC1 (configuration not stated)
  KCNQ2 inh: i | KCNQ2 inh baseline: -0.02

Screening results (PubChem)
